AF4-AF9 inh – MLL-AF4/AF9 protein interaction inhibition. P42568. AlphaScreen, biotin-AF4 peptide binding to FLAG-AF9. inhibition, % at 10 µM. actives 0.47% (n = 350,000). AID 651704;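 active = every replicate reaching a set inhibition limit, whatever the replicate mean, cut at about 25% in these data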;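 also: 0% = plate neutral control median and 100% = total signal loss; the record names both 10 and 1 µM as test concentration; the first replicate is given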
Target sequence (P42568 whole entry, looked up): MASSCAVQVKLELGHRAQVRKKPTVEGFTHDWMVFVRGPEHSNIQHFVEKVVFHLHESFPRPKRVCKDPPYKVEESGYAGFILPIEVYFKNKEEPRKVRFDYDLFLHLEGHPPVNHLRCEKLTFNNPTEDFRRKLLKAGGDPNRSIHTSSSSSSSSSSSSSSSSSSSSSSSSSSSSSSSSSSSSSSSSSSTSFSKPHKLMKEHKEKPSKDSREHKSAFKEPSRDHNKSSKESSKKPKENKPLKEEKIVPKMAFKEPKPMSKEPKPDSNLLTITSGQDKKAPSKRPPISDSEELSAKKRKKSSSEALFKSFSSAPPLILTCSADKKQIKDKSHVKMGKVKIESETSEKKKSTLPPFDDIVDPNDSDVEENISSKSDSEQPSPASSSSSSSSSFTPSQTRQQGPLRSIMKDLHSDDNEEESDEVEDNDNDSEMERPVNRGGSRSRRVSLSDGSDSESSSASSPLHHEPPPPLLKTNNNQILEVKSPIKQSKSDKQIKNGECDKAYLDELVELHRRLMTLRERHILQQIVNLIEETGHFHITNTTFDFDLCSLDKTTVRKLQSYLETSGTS
rRNA inh HTS – inhibitors of bacterial rRNA selective over humanized ribosomes; GFP signal change (wild-type ribosome), % (concentration not given with the values); E. coli WT GFP vs humanized-ribosome RFP mutants, fluorescence, 24 h; hits give low values; DMSO median 0, no signal -100; AID 720706; actives 1.6% (n = 350,000);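 active = significant combined selectivity score with lowered wild-type GFP, culture density cut under 30%, mutant RFP and density less affected; inactive = any of these conditions unmet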; also: one replicate is shown; some compounds called inactive have numbers as strong as hits
rRNA inh HTS OD600 – further read-out of rRNA inh HTS, marked with its call; OD600 change, %; measured here: OD600 growth;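 optical density of the mix in the first replicate; 0 = DMSO median and -100 = no signal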
rRNA inh HTS RFP – second read-out of rRNA inh HTS, no call of its own (marks repeat the call); RFP signal change, %; measured here: RFP humanized mutant strains;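 first replicate; 0 = DMSO median and -100 = no signal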
Numbers without * were called inactive; & = joins results of further samples. Some of the compounds tested. The share of hits here may be higher or lower than overall.

SMILES	AF4-AF9 inh	rRNA inh HTS	rRNA inh HTS OD600	rRNA inh HTS RFP
C[C@H](CO)N1C[C@H](C)[C@H](CN(C)C(=O)Nc2ccc(F)cc2)Oc2ncc(C#Cc3ccc(F)cc3)cc2C1=O	3.1	-4	-16	0.0
C[C@@H]1CN([C@@H](C)CO)S(=O)(=O)c2ccc(C#CC3CC3)cc2O[C@@H]1CN(C)C(=O)Cc1ccncc1	2.1	0	6	-2.8
COc1ccc(NC(=O)Nc2ccc3c(c2)CC(=O)N([C@H](C)CO)C[C@@H](C)[C@@H](CN(C)Cc2ccncc2)O3)cc1	0.0	-1	10	-0.2
CC(C)C#Cc1ccc2c(c1)O[C@H](CN(C)C(=O)Nc1ccccc1)[C@@H](C)CN([C@@H](C)CO)S2(=O)=O	2.3	0	-16	0.5
COc1ccc(NC(=O)Nc2ccc3c(c2)C(=O)N([C@@H](C)CO)C[C@@H](C)[C@H](CN(C)C(=O)Nc2cccc4ccccc24)OCCCC[C@@H](C)O3)cc1	-1.2	2	11	-2.7
COc1ccc(C#Cc2cnc3c(c2)C(=O)N([C@H](C)CO)C[C@H](C)[C@H](CN(C)C(=O)CN(C)C)O3)cc1	9.0	1	2	-1.0
O=C(Nc1ccccc1F)N1C[C@H]2[C@@H](c3ccccc31)[C@H](CO)N2C(=O)Cc1ccccc1	-4.5	-3	1	-0.5
COC(=O)C[C@@H]1CC[C@@H](NC(=O)C2CCC2)[C@@H](CO)O1	1.5	5	6	-0.2
CN(C)C(=O)c1cccc(-c2ccccc2[C@H]2[C@@H](C#N)N(C(=O)C3CC3)[C@@H]2CO)c1	-1.9	3	9	-0.9
CCNC(=O)C[C@H]1CC[C@H]2[C@@H](COc3ccc(NC(=O)c4cc(C)on4)cc3C(=O)N2C)O1	-1.1	0	-1	-1.1

Reprinted from the results shown (7 entries):
SMILES	AF4-AF9 inh	rRNA inh HTS	rRNA inh HTS OD600	rRNA inh HTS RFP
CC(C)C#Cc1ccc2c(c1)O[C@H](CN(C)C(=O)Nc1ccccc1)[C@@H](C)CN([C@@H](C)CO)S2(=O)=O	2.3	0	-16	0.5
COc1ccc(NC(=O)Nc2ccc3c(c2)C(=O)N([C@@H](C)CO)C[C@@H](C)[C@H](CN(C)C(=O)Nc2cccc4ccccc24)OCCCC[C@@H](C)O3)cc1	-1.2	2	11	-2.7
COc1ccc(C#Cc2cnc3c(c2)C(=O)N([C@H](C)CO)C[C@H](C)[C@H](CN(C)C(=O)CN(C)C)O3)cc1	9.0	1	2	-1.0
O=C(Nc1ccccc1F)N1C[C@H]2[C@@H](c3ccccc31)[C@H](CO)N2C(=O)Cc1ccccc1	-4.5	-3	1	-0.5
COC(=O)C[C@@H]1CC[C@@H](NC(=O)C2CCC2)[C@@H](CO)O1	1.5	5	6	-0.2
CN(C)C(=O)c1cccc(-c2ccccc2[C@H]2[C@@H](C#N)N(C(=O)C3CC3)[C@@H]2CO)c1	-1.9	3	9	-0.9
CCNC(=O)C[C@H]1CC[C@H]2[C@@H](COc3ccc(NC(=O)c4cc(C)on4)cc3C(=O)N2C)O1	-1.1	0	-1	-1.1

Returning to the listing with the two entries that preceded the break.
SMILES	AF4-AF9 inh	rRNA inh HTS	rRNA inh HTS OD600	rRNA inh HTS RFP
CN(C)C(=O)c1cccc(-c2ccccc2[C@H]2[C@@H](C#N)N(C(=O)C3CC3)[C@@H]2CO)c1	-1.9	3	9	-0.9
CCNC(=O)C[C@H]1CC[C@H]2[C@@H](COc3ccc(NC(=O)c4cc(C)on4)cc3C(=O)N2C)O1	-1.1	0	-1	-1.1
CO[C@@H]1CN(C)C(=O)c2cc(NS(=O)(=O)CC(F)(F)F)ccc2OC[C@H](C)N(CC2CCCCC2)C[C@@H]1C	1.3	0	0	1.0
O=C(CCN1CCCCC1)NCC[C@@H]1CC[C@H](NC(=O)C2CCCC2)[C@@H](CO)O1	-0.1	3	6	-1.4
O=C(CCN1CCCCC1)NCC[C@@H]1CC[C@@H](NC(=O)C2CCCCC2)[C@H](CO)O1	-3.1	0	3	-1.6
C[C@H]1CN([C@@H](C)CO)C(=O)c2cccc(NS(=O)(=O)c3ccc(Cl)cc3)c2O[C@H]1CN(C)Cc1ccc(C(F)(F)F)cc1	3.6	-3	-8	1.6
CNC[C@@H]1Oc2cc(C#Cc3cccc(OC)c3)ccc2S(=O)(=O)N([C@@H](C)CO)C[C@H]1C	9.1	1	-3	1.9
CCC(=O)N1[C@@H]2c3cccc(=O)n3C[C@@H]2[C@@H](CO)[C@@H]1C(=O)NC1CCCC1	-22	0	17	-3.7
COc1ccc(C2=Nc3ccccc3N(C(=O)c3ccc4c(c3)OCO4)C2C(=O)Nc2c(C)cccc2C)cc1 (configuration not stated)	1.6	-2	8	-7.2
COC(=O)C[C@H]1CC[C@H]2[C@@H](COC[C@@H](O)CN2S(=O)(=O)c2ccccc2C)O1	-1.6	-2	2	-0.7
COc1cccc(-c2ccc([C@@H]3[C@H]4CN(C(=O)C5CCC5)CC(=O)N4[C@H]3CO)cc2)c1	-6.7	-2	-3	1.9
C[C@H](c1ccccc1)N1C[C@H](COCc2ccccc2)Oc2cc(N3CCC[C@H]3CO)ccc2S1(=O)=O	-2.9	0	-6	9.8
C[C@H](CO)N1C[C@H](C)[C@@H](CN(C)Cc2ccc(C(=O)Nc3ccccc3N)cc2)Oc2ccc(NS(=O)(=O)c3ccc(F)cc3)cc2C1=O	-14	0	-4	-1.3
CCC(=O)Nc1ccc2c(c1)OC[C@H](C)N(C(=O)CC1CC1)C[C@H](C)[C@H](OC)CN(C)C2=O	-3.7	-2	0	-1.6
C[C@H]1CN([C@@H](C)CO)C(=O)c2cc(NC(=O)Nc3ccc4c(c3)OCO4)ccc2O[C@H]1CN(C)CC1CCCCC1	4.4	1	-7	-2.1
C[C@@H](O)C#Cc1ccc2c(c1)O[C@H](CN(C)Cc1ccc(-c3ccccc3)cc1)[C@@H](C)CN([C@@H](C)CO)S2(=O)=O	1.5	-5	-7	7.9
CN1C(=O)c2cc(NC(=O)Nc3ccccc3Cl)ccc2OC[C@@H]2O[C@@H](CC(=O)NCCCN3CCOCC3)CC[C@@H]21	-0.1	-3	2	0.4
C[C@@H]1CN([C@@H](C)CO)C(=O)c2cc(NS(=O)(=O)c3ccc(Cl)cc3)ccc2O[C@H]1CN(C)Cc1ccc(Cl)c(Cl)c1	0.7	-3	2	2.4
CN(C)C(=O)c1ccc(-c2ccc3c(c2)[C@@H]2[C@@H](CCN2C(=O)C2CCCCC2)[C@@H](CO)N3C)cc1	5.1	-9	-3	-4.8
C[C@@H]1CCCCO[C@H](CN(C)C(=O)Cc2ccccc2)[C@@H](C)CN([C@@H](C)CO)C(=O)c2cc(NC(=O)Nc3ccc(C(F)(F)F)cc3)ccc2O1	-5.6	5	11	2.1
COCC(=O)N(C)C[C@@H]1Oc2ncc(-c3ccc(C)cc3)cc2C(=O)N([C@H](C)CO)C[C@@H]1C	-0.8	4	1	-0.6
C[C@@H]1CN([C@@H](C)CO)C(=O)c2cc(N(C)C)ccc2O[C@@H](C)CCCCO[C@@H]1CN(C)C(=O)Nc1cccc2ccccc12	5.6	-2	-10	-0.9
C[C@H]1CN([C@@H](C)CO)C(=O)c2cc(C#CCN(C)C)cnc2O[C@H]1CN(C)Cc1ccccc1	1.9	2	7	-2.4
O=C(Nc1ccc2c(c1)[C@H]1C[C@H](CC(=O)N3CCCCC3)O[C@@H](CO)[C@H]1O2)c1ccc2c(c1)OCO2	0.5	-2	2	-1.2
C[C@@H]1CN([C@@H](C)CO)C(=O)c2c(c3ccccc3n2C)-c2ccccc2CO[C@H]1CN(C)S(=O)(=O)Cc1ccccc1	2.5	-2	2	4.3
C[C@@H]1CN([C@H](C)CO)C(=O)c2cccc(NC(=O)c3ccncc3)c2O[C@H]1CN(C)Cc1ccncc1	2.0	1	5	0.6
C[C@@H]1CN([C@@H](C)CO)C(=O)c2cccc(NS(C)(=O)=O)c2O[C@@H]1CN(C)C	-3.9	3	6	-3.0
CC(C)C#Cc1ccc([C@@H]2[C@@H](C#N)N(C(=O)CN(C)C)[C@H]2CO)cc1	1.2	3	4	6.1
C[C@@H]1CN([C@@H](C)CO)C(=O)c2cccc(NS(=O)(=O)c3ccc(F)cc3)c2O[C@H]1CN(C)Cc1ccncc1	-0.5	3	8	0.4
O=C(Nc1ccc(N2CCCC2)c(Cl)c1)c1ccc([N+](=O)[O-])o1	49*	-56	-80	-26
C[C@@H]1CN([C@@H](C)CO)C(=O)c2cccc(NC(=O)Nc3ccc(C(F)(F)F)cc3)c2O[C@H]1CN(C)C(=O)NC1CCCCC1	1.8	0	10	-0.9
CCCC(=O)Nc1ccc2c(c1)C(=O)N(C)[C@H]1CC[C@H](CC(=O)NCC3CC3)O[C@H]1CO2	-7.2	0	5	-0.3
C/C=C/c1cccc(-c2nc(C(=O)NC3Cc4ccccc4C3)cc3c2[C@H](CCO)N(C(C)=O)C3)c1	5.8	-5	-1	4.6
C[C@@H]1CN([C@H](C)CO)C(=O)c2cc(NS(C)(=O)=O)ccc2O[C@@H](C)CCCCO[C@H]1CN(C)C(=O)Nc1ccc2c(c1)OCO2	1.1	0	-7	-0.6
O=C(N[C@H]1CC[C@H](CCNS(=O)(=O)c2ccc(F)cc2)O[C@H]1CO)C1CCC1	-0.5	1	4	-1.1
CCCNC(=O)[C@@H]1[C@@H](CO)[C@@H]2Cn3c(ccc(-c4ccc(OC)cc4)c3=O)[C@@H]2N1CC	-2.1	-1	5	-0.2
C[C@H](CO)N1C[C@H](C)[C@@H](CN(C)S(=O)(=O)c2ccccc2)Oc2ccc(NS(=O)(=O)c3ccc(F)cc3)cc2CC1=O	0.8	-5	-4	2.5
COc1ccc(NC(=O)N(C)C[C@H]2Oc3ncc(C#C[C@@H](C)O)cc3C(=O)N([C@H](C)CO)C[C@H]2C)cc1	-2.1&-18&-4.1	8&0	12&-8	0.0&-2.2
O=C(Nc1ccc2c(c1)[C@H]1C[C@@H](CC(=O)N3CCCCC3)O[C@@H](CO)[C@H]1O2)NC1CCCC1	1.3	0	-10	0.4
Cc1ccc(S(=O)(=O)N(C)C[C@H]2OCCCC[C@@H](C)Oc3ccc(NS(=O)(=O)c4c(C)noc4C)cc3C(=O)N([C@@H](C)CO)C[C@@H]2C)cc1	0.5	2	-5	17
COc1ccc(NC(=O)c2cc(C3CCCCN3S(=O)(=O)c3ccccc3)on2)c(C)c1 (configuration not stated)	-0.8	-5	-25	1.7
CC1=C(C(=O)N(C(C)C)C(C)C)CC(CC(=O)NC2CCCCC2)C(=O)N1CCC1=CCCCC1 (configuration not stated)	1.7	-15	-18	-0.2
CC(C)NC(=O)N1[C@H](C#N)[C@@H](c2ccc(C#CC3CCCC3)cc2)[C@H]1CO	-21	2	-5	0.3
COCc1[nH]nc2c1C(c1ccc(C)cc1)N(c1ccc(OC)cc1)C2=O (configuration not stated)	2.6	-52	-77	-16
Cc1noc(C)c1NC(=O)N(C)C[C@@H]1Oc2ccc(NC(=O)CCCN(C)C)cc2C(=O)N([C@H](C)CO)C[C@H]1C	-5.5	3	9	0.4
COc1ccccc1NC(=O)N[C@@H]1CC[C@H](CCNS(=O)(=O)c2ccc(C)cc2)O[C@H]1CO	-5.4	3	-6	2.2
CO[C@H]1CN(C)C(=O)c2ccc(NC(=O)Nc3ccccc3F)cc2OC[C@H](C)N(CC2CC2)C[C@H]1C	1.8	0	-9	-0.9
Cn1nccc1-c1coc2c(C(=O)NCc3ccccc3)cccc12	-3.7	-50	-73	-20
C[C@@H]1CN([C@H](C)CO)C(=O)Cc2cc(N(C)C)ccc2O[C@@H]1CN(C)S(=O)(=O)c1ccc(Cl)cc1	7.1	-1	-3	0.7
CN(C)CC(=O)Nc1ccc2c(c1)[C@@H]1C[C@@H](CC(=O)NCc3ccccc3)O[C@H](CO)[C@@H]1O2	-0.5	4	3	-1.8
C[C@@H]1CN([C@H](C)CO)C(=O)c2cc(NS(=O)(=O)c3ccc(Cl)cc3)ccc2O[C@@H]1CN(C)Cc1ccc(Oc2ccccc2)cc1	-2.6	0	-1	2.7
CO[C@H]1CN(C)C(=O)c2cc(NC(=O)Nc3ccccc3Cl)ccc2OC[C@@H](C)NC[C@@H]1C	0.3	1	3	2.8

Following part
SMILES	AF4-AF9 inh	rRNA inh HTS	rRNA inh HTS OD600	rRNA inh HTS RFP
CO[C@@H]1CN(C)C(=O)c2ccc(NS(C)(=O)=O)cc2OC[C@H](C)N(C(=O)CC2CC2)C[C@H]1C	-4.5	2	1	1.8
Cc1cc2nc(-c3ccccc3)c(CC(C)(C)C)n2c(C)c1Br	1.2	-1	13	-1.5
O=C1N[C@H](Cc2ccccc2)COCn2nncc2CC[C@H]1Cc1ccccc1	-1.5	2	9	-3.0
CC(C)(C)[S@@](=O)N1Cc2cc(C(=O)NC3CCCCC3)nc(-c3cccc(Br)c3)c2[C@H]1CCO	-4.0	-41	-74	8.0
CN1C(=O)c2cc(NC(=O)C3CC3)ccc2OC[C@H]2O[C@H](CC(=O)NCc3ccccc3F)CC[C@@H]21	-28	0	1	-2.6
Cc1cc(C)n2c(Nc3ccc4c(c3)OCCO4)c(-c3ccccn3)nc2n1	18	5	11	4.1
C[C@@H]1CN([C@H](C)CO)S(=O)(=O)c2ccc(-c3ccc(F)cc3)cc2O[C@@H]1CN(C)C(=O)Nc1ccccc1F	-0.2	-7	-10	7.7

Compound activity: PubChem BioAssay, Broad Institute
